KCNQ2 pot: potentiators of rat KCNQ2 potassium channel; O88943; CHO-K1 KCNQ2, FluxOR thallium flux fluorescence; active compounds read high; B-score at 10 µM; hit rate 0.54% among 310,000;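 active = fluorescence ratio B-score at least 3 SD of library B-scores, with initial fluorescence B-score within 3 SD, cut at about 5.3 in these data; same plate scores as AID 2156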;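 also: B-score of peak minus minimum over baseline fluorescence ratio after K+ and Tl+ stimulus; positive B-score means potentiation of KCNQ2 with more thallium influx and brighter signal; only the inactives scoring about 0 or higher are listed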
Target sequence (O88943 whole entry, looked up): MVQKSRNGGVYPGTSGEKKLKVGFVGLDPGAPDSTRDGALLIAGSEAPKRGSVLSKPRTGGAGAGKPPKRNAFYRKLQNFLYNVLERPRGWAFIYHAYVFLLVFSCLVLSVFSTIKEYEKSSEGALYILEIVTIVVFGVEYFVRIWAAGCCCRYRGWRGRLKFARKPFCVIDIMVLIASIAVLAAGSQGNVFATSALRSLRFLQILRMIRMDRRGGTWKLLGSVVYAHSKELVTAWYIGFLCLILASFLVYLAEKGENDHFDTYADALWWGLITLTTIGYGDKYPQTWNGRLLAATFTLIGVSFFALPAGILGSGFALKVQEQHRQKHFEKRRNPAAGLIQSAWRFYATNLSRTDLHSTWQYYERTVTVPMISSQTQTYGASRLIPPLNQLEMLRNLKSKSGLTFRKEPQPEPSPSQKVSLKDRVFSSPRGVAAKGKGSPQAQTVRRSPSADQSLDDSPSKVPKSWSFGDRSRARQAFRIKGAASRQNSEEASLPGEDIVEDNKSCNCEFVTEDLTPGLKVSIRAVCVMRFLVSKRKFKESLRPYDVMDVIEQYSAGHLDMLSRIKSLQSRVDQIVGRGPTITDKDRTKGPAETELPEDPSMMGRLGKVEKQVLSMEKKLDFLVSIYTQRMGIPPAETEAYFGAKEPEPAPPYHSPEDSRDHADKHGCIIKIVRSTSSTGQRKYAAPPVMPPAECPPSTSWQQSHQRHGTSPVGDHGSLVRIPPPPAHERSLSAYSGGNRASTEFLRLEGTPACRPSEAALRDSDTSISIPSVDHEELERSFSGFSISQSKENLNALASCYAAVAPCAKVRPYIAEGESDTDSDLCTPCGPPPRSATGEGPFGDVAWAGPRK
KCNQ2 pot baseline: also measured in KCNQ2 pot; calls as there; B-score; compound at 10 µM; measured here: initial fluorescence intensity artifact check;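 brightness before thallium and not channel activity; 0 = typical well and far values either way flag optical interference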
Starred values were filed as active, the others as inactive. Only part of the results is shown. The share of hits here may be higher or lower than overall.

Structure	KCNQ2 pot	KCNQ2 pot baseline
O=C(CN1CCC(n2nnc3cc(F)ccc32)CC1)NCc1ccco1	2.4	-0.77
COc1ccc(NC(=O)c2sc3nc(N4CCOCC4)c4c(c3c2N)CCCC4)c(OC)c1	0.08	-1.5
CCc1c(C)nc2ncnn2c1N1CCC(C(=O)NCc2ccc3c(c2)OCO3)CC1	0.05	0.87
Cc1cc(C)n(C(=O)c2ccc([N+](=O)[O-])c(Cl)c2)n1	0.08	0
COc1cc2[nH]c(=O)n(CCCCCC(=O)NC3CCCC3)c(=O)c2cc1OC	1.4	-0.18
Cc1ccc(NC(=O)CCC(=O)Nc2ccc(C)cc2)cc1	1.6	0.07
CCn1c(SCC(=O)NC2=NCCS2)nnc1C(C)NC(=O)c1ccc(Cl)cc1 (stereo not given)	0.75	0
C=CCNC(=O)C(=O)NCC1CCCN1S(=O)(=O)c1cccs1 (stereo not given)	0.24	-1.5
Cc1ccc2c(c1)N(C(=O)CCC(=O)N1CCCCC1)CCO2	0.89	-0.1
OCCN1CCOCCN(CCO)CCOCC1	0.92	0.55
CCCC(=O)Oc1ccc(C2NC(=O)c3ccccc3O2)cc1 (stereo not given)	1.1	-0.64
C=CCNC(=S)Nc1ccccc1	0.67	0.81
NNc1nc(-c2ccccc2)cc(-c2ccccc2O)n1	0.14	0.3
COc1ccc(N(CC(=O)Nc2ccccc2C(=O)NCC(C)C)S(C)(=O)=O)cc1	0.7	0.74
N#CC/C(N)=N/NC(=O)CCCNc1ncc(C(F)(F)F)cc1Cl	0.71	-0.14

Looked up one by one from the entries so far:
Structure	KCNQ2 pot	KCNQ2 pot baseline
Cc1ccc(NC(=O)CCC(=O)Nc2ccc(C)cc2)cc1	1.6	0.07
CCc1c(C)nc2ncnn2c1N1CCC(C(=O)NCc2ccc3c(c2)OCO3)CC1	0.05	0.87
OCCN1CCOCCN(CCO)CCOCC1	0.92	0.55
C=CCNC(=O)C(=O)NCC1CCCN1S(=O)(=O)c1cccs1 (stereo not given)	0.24	-1.5

The list goes on:
Structure	KCNQ2 pot	KCNQ2 pot baseline
Cc1cc(C(=O)N/N=C/c2c[nH]c3ccccc23)cs1	1.2	-0.92
COc1ccc(CCNC(=O)c2c(O)c3c([nH]c2=O)CCCC3)cc1	0.32	-0.24
COCc1cc(CNC(=O)C2CCC(=O)N(Cc3ccccc3F)C2)[nH]n1 (stereo not given)	0.03	-1.3
O=C(COc1ccccc1-c1ccccc1)NCCN1C(=O)S/C(=C\c2cccnc2)C1=O	0.9	-1.5
CCCN(CC(=O)Nc1ccc(F)c(F)c1F)CC(=O)Nc1c(Cl)cccc1Cl	0.34	0.67
CCC(=O)Nc1ccc(N2CCCCC2)c(C(=O)Nc2ccc(OC)cc2)c1	1.3	-1.4
O=C(c1ccc2c(=O)n(-c3ccccc3)c(=O)[nH]c2c1)N1CCN(c2ccc(F)cc2)CC1	0.58	-1.5
COc1ccc(N(C(=O)c2ccco2)S(=O)(=O)c2cc(OC)ccc2OC)cc1	0.88	-0.78
CCOC(=O)c1sc(NC(=O)c2cncc(Br)c2)nc1C	0.45	-0.05
O=C(CSc1cccc[n+]1[O-])NCC1CCCCC1	1.1	-0.91
CC1CCN(S(=O)(=O)c2cccc(C(=O)NNC(=O)c3ccco3)c2)CC1	1.2	0
CCc1ccccc1NC(=O)CSc1nnc(C2CC2)n1CC1CCCO1 (stereo not given)	1.1	-0.05
Nc1nc(COc2ccccc2)cs1	1.5	0.91
COc1cc(CNCCN2CCOCC2)ccc1OCc1ccc(Cl)cc1	0.08	0.41
O=C(CN1CCCCC1)Nc1ccccc1-c1ccccc1	0.48	-0.46

The list goes on:
Structure	KCNQ2 pot	KCNQ2 pot baseline
COc1cc(C2CC(=O)Nc3cc(C)c(C)cc32)cc(OC)c1OC (stereo not given)	1.1	0.75
CC(=O)Nc1cccc(NC(=O)c2ccc([N+](=O)[O-])cc2Cl)c1	0.9	0.68
COc1ccc2cc3c(N)nn(C(=O)Cc4ccc(Cl)cc4)c3nc2c1	1.1	-0.79
Cc1cc(C)nc(SCCN(C)C)n1	0.18	-0.48
Cc1ccc(Cn2cnc3ccccc32)cc1C	0.01	-0.07
O=C1c2nc3ccccn3c2C(=O)N1Cc1ccccc1	0.08	-0.8
CC(=O)C1=C(C)NC(=O)NC1c1cccc(O)c1 (stereo not given)	0.48	0.82
CN(C)c1ccc(NS(=O)(=O)c2cc3c4c(c2)CC(=O)N4CCC3)cc1	0.87	-0.18
CCOC(=O)c1cc2c(ccn2C)n1CC(=O)N1CCN(c2cccc(C(F)(F)F)c2)CC1	0.78	-1.4
CC(C)c1ccc(NC(=S)NN2CCOCC2)cc1	0.76	0
O=C(COc1ccc2ccccc2c1)N1CCN(C(=O)c2ccco2)CC1	0.76	-2
CN(C(=O)COC(=O)/C=C/c1cccs1)c1c(N)n(Cc2ccccc2)c(=O)[nH]c1=O	0.41	-0.05
CCOC(=O)Cc1csc(SCC(=O)NC2CCC(C)CC2)n1 (stereo not given)	1.1	-0.9
NS(=O)(=O)c1c(Sc2ccccc2C(=O)O)ccc2ccccc12	3.9	-1.7
O=C(Cc1ccc(Br)cc1)Nc1ncc([N+](=O)[O-])s1	1.7	-1.6

Following part:
Structure	KCNQ2 pot	KCNQ2 pot baseline
O=C(O)c1ccc2c3n(nc2c1)-c1ccc(Cl)cc1CO3	2.3	-0.02
CS(=O)(=O)C1=NSC2=NC(=O)/C(=C\c3ccc(OS(=O)(=O)c4ccccc4)cc3)C(=N)N21	4.4	-1.2
CCc1sc(-c2ccccc2)nc1C(=O)OC	0.07	0.02
CSc1ccc(Cl)c(C(=O)OCC(=O)NC2CC2)c1	0.49	-0.81
CCOC(=O)c1ccc(NC(=O)CN2C(=O)CNC2=O)cc1	0.21	-2.1
Cc1cc(C(=O)N2CCC(C(F)(F)F)n3nccc32)on1 (stereo not given)	0.51	-0.31
Cc1onc(-c2c(F)cccc2Cl)c1C(=O)OCC(=O)NC(N)=O	0.29	-2.5
CCCCc1ccc(-n2c(Cc3cccs3)n[nH]c2=S)cc1	1.8	1.1
CC(C)=CCC(C)(C)/C=N/NC(N)=O	1	1.7
Clc1ccc2nnnc(-c3ccccc3)c2c1	0.83	-0.32
CCOCCc1nnc(NC(=O)COC)s1	0.46	1.7
CCC(C)[C@H](NC(=O)C1(c2ccccc2)CCN(C(=O)OC(C)(C)C)CC1)C(=O)N[C@@H](C(=O)O)c1ccccc1 (stereo not given in full)	1.2	-0.03
CCn1c(CSc2nc3ccccc3s2)nnc1SCC(=O)c1ccc(O)c(O)c1	2	-0.22
Cc1c(OC(C)C(=O)NC(Cc2c[nH]c3ccc(O)cc23)C(=O)O)ccc2c1oc(=O)c1ccccc12 (stereo not given)	0.91	0.14
N#Cc1cc([N+](=O)[O-])ccc1Oc1cccc(/C=N/NC(=O)c2ccc(Cl)cc2)c1	2.5	-0.77

Next part
molecule	KCNQ2 pot	KCNQ2 pot baseline
COC(=O)c1c(-c2ccccc2Cl)noc1-c1cnc(N)nc1C(F)(F)F	0.85	0.12
CCCc1[nH]nc2c1C(c1cc(OC)ccc1F)C(C#N)=C(N)O2 (stereo not given)	0.14	-0.32
Brc1cccc(-c2nnco2)c1	0.87	-1.8
COc1ccc(NC(=O)c2cc(=O)c3ccccc3o2)cn1	0.15	0.09
CCCN(C(=O)c1ccc(N(C)S(=O)(=O)c2ccc(C)cc2)cc1)C1CCS(=O)(=O)C1 (stereo not given)	1.7	-0.4
O=C(OCc1cncs1)c1ccccc1	0.72	-0.81
O=C1N/C(=N/S(=O)(=O)Cc2ccccc2)S/C1=C/c1ccc2c(c1)OCO2	0.37	-0.01
c1ccc(-c2ccc(-c3ccccn3)nn2)nc1	0.68	0.3
CCOc1ccc(NC(=S)NC(=O)Cc2ccccc2)cc1	0.09	0.82
O=C(NC(=S)N1CCCC1)c1cccc([N+](=O)[O-])c1	1.7	0.75
CCN(C(=O)COC(=O)c1cccn1C)C1CCS(=O)(=O)C1 (stereo not given)	2.5	0.07
Cc1nnc(-c2cnn(-c3ccccc3)c2N)n1Cc1ccncc1	0.52	0.83
Cc1ccc(NC(=O)c2ccccc2)cc1	0.29	0.97
CC(Oc1ccc(F)cc1)C(=O)N(Cc1ccccc1)c1c(N)n(Cc2ccccc2)c(=O)[nH]c1=O (stereo not given)	0.46	0.59
COc1ccc(N=C2SC(C(=O)O)CC(=O)N2C)cc1 (stereo not given)	0.07	-0.91
Cc1ccc(S(=O)(=O)N2CCC(C(=O)N[C@H](C(=O)N3CCN(C)CC3)C(C)C)CC2)cc1	0.59	-0.17
NNC(=O)Cn1c(-c2ccccn2)nc2ccccc21	1.6	0.59
COCC(=O)Nc1ccc(C)c(Cl)c1	2.1	-0.8
Cc1cc(C)n(-c2nnc(SCC(=O)NC3CCCC3)c3ccccc23)n1	0.95	0.11
CS(=O)(=O)c1ccc(Cl)c(NC(=O)CCl)c1	0.34	-0.4
Cc1ccc([N+](=O)[O-])cc1NC(=O)c1ccc(-c2ccccc2)cc1	1.1	0.13
c1ccc(Cc2ccc(OCCn3ccnc3)cc2)cc1	0.08	0.22
Cc1cccc(C(=O)N2CCC(N3CCC(C(=O)N4CCOCC4)CC3)CC2)c1	0.02	0.32
CC(=O)Nc1sc(NC(=O)c2ccc(Cl)cc2)nc1-c1cccs1	1.4	-0.22
CCOCC(=O)Nc1cc(C(=O)Nc2ccccc2)ccc1Cl	0.35	-1.8

Next section
molecule	KCNQ2 pot	KCNQ2 pot baseline
Cc1nc(NC(=O)/C=C/c2ccc(C(C)(C)C)cc2)sc1C(=O)N(C)C	1.4	0.01
CCCCn1c(N)c(N(CCOC)C(=O)CSCc2ccc(C)cc2)c(=O)[nH]c1=O	1.4	-0.97
N#CCc1nn(-c2ccccc2)c2ncnc(N)c12	0.62	0.28
CS(=O)(=O)N(Cc1cc2ccccc2[nH]c1=O)C1CCCCC1	0.24	-1.6
COC(=O)Cc1ccc(NC(=O)c2ccc3c(c2)C(=O)N(Cc2ccco2)C3=O)cc1	1.2	-0.33
O=C(COC(=O)/C=C/c1ccccc1Cl)NCc1ccccc1	2.8	0.13
O=C(O)c1ccc2cc[nH]c2c1	0.54	0.5
CCC(Sc1nc2ccccc2[nH]1)C(=O)Nc1cc(C)on1 (stereo not given)	0.56	-0.59
Cc1nn2c(=O)nc3sc4c(c3c2[nH]c1=O)CCCC4	0.27	0.04
CCOC(=O)c1c(C)[nH]c(C)c1C(=O)CSc1nc2ccccc2n1CC	2	0.19
COc1cccc(NC(=O)N2CCN(C(=O)C(Cc3ccc(OC)c(OC)c3)NC(C)=O)CC2)c1 (stereo not given)	0.86	0.29
COc1ccccc1-c1nn2c(C(F)(F)F)nnc2s1	1.7	0.43
O=C(NCCc1ccccc1)C1CCN(C2CCN(Cc3ccc(CO)o3)CC2)CC1	0.45	-1.2
O=C(c1ccncc1)c1ccc(NS(=O)(=O)c2ccc(Br)s2)cc1	1.9	-1.3
CC1(C)CCC[C@]2(C)[C@H]3CC(=O)O[C@]3(C)CC[C@@H]12	1.5	0.47
COc1ccc(/C=C/C(=O)NCCNC(=O)c2ccccc2)cc1OC	1.6	0.01
COCCCn1c(=O)c2sccc2n2c(CCCC(=O)NCc3cccc(OC)c3)nnc12	0.5	1.5
Cc1cc(=O)[nH]c(SCc2nc3ccccc3s2)n1	1	-0.25
COc1ccccc1N1CCN(C2CCN(C(=O)c3cc(OC)c(OC)c(OC)c3)CC2)CC1	0.01	-0.63
Nc1ccc(NC(=O)NC2CCCCC2)cc1	0.01	-0.53
O=C(C[n+]1ccc(Cc2ccccc2)cc1)Nc1ccc([N+](=O)[O-])cc1Cl	0.18	2.4
CC(=O)Nc1ccc(-c2nnn(CC(=O)c3ccccc3)n2)cc1Cl	0.38	0.4
COc1cccc(-n2c(SCC(=O)N3CCOCC3)nnc2-c2c[nH]c3ccccc23)c1	0.93	0.37
Cc1csc(NC(=O)CSc2nc3[nH]ncc3c(=O)[nH]2)n1	1.3	1.2
CCC(C)(C)NC(=O)C(c1ccccn1)N(C(=O)c1csnn1)c1ccccc1 (stereo not given)	2.2	-1.4

Some of these compounds in order of the KCNQ2 pot baseline value, lowest first:
canonical_smiles | KCNQ2 pot | KCNQ2 pot baseline
O=C(c1ccncc1)c1ccc(NS(=O)(=O)c2ccc(Br)s2)cc1 | 1.9 | -1.3
Nc1ccc(NC(=O)NC2CCCCC2)cc1 | 0.01 | -0.53
O=C(C[n+]1ccc(Cc2ccccc2)cc1)Nc1ccc([N+](=O)[O-])cc1Cl | 0.18 | 2.4

Remaining list, next part:
molecule	KCNQ2 pot	KCNQ2 pot baseline
CCN(CC)C(=O)N1CCN(S(=O)(=O)c2ccccc2)CC1	0.44	-1.1
CCCSc1nc(N2CCCC2)c2c(c1C#N)CC(C)(C)OC2	0.02	-0.02
C/C(=N\Nc1ccccn1)c1ccc(S(=O)(=O)NCc2ccco2)cc1	1.1	0.28
CCOc1ccc(-c2[nH]nc3c2C(c2ccc4c(c2)OCO4)C(C#N)=C(N)O3)cc1OC (stereo not given)	1.4	0.95
Cc1cc(C)nc(NC(=O)CSc2nc3cc(Cl)ccc3s2)n1	1.4	-0.27
COc1ccc(-n2nc3c(N4CCC(C(=O)NCc5ccccc5C)CC4)nnc(C)c3c2C)cc1	0.04	-0.14
O=C(NC(=O)C(F)(F)F)Nc1ccc(S(=O)(=O)Nc2nccs2)cc1	3	-0.26
Cc1ccc(C)c(OCCC(=O)OCC(=O)NCc2ccc(F)cc2)c1	0.52	0.39
CCOC(=O)c1c(-c2ccc(C)cc2)csc1NC(=O)CCN1CCOCC1	0.52	-1.4
O=C(COC(=O)CNS(=O)(=O)/C=C/c1ccccc1)NC1CCS(=O)(=O)C1 (stereo not given)	3.3	-1.1
